Screens from PubChem.
Vaccinia stage = Vaccinia orthopox stage-specific inhibition; Vaccinia-infected cells, mCherry/Venus stage reporter fluorescence; stronger effect = lower value; some inactives read as strong as hits; activity change (mCherry), % (test concentration not listed); 0.01% of 89,000 active; AID 1053133;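 active = mCherry past -33% and 40 or more points under the early reporter, replicates agreeing; inconclusive = past -33% without that gap or agreement; tested in A549 cells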;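 note: scaled between vehicle wells and reference inhibitor wells; 23 nL library stock went into each well; one replicate is shown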
Vaccinia stage Venus = second read-out of Vaccinia stage, no call of its own (marks repeat the call); activity change (Venus), %; measured here: Venus reporter, other viral stage;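 negative = less Venus signal; first of two replicates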
Starred values were filed as active, the others as inactive; ? = inconclusive; . = no result given; & = joins results of further samples. A portion of the library. The share of hits here may be higher or lower than overall.

Every second line gives: Vaccinia stage, Vaccinia stage Venus
> C[C@@H]1CCCCO[C@H](CN(C)Cc2ccncc2)[C@@H](C)CN([C@@H](C)CO)C(=O)c2cc(NS(=O)(=O)c3ccccc3)ccc2O1
  6.6, -7.0
> O=C(C[C@@H]1CC[C@H]2[C@@H](COC[C@@H](O)CN2Cc2ccc(C(F)(F)F)cc2)O1)NCCc1ccccc1
  -23.7, -12.2
> C[C@H](CO)N1C[C@H](C)[C@H](CN(C)Cc2ccc(-c3ccccc3)cc2)Oc2ccc(NS(=O)(=O)c3cccs3)cc2CC1=O
  -24.9, -13.2
> C[C@H](CO)N1C[C@H](C)[C@@H](CN(C)C(=O)NC2CCCCC2)Oc2cc(/C=C/c3ccccc3)ccc2S1(=O)=O
  ?, .
> CS(=O)(=O)Nc1ccc2c(c1)[C@@H]1C[C@H](CC(=O)NCC3CC3)O[C@H](CO)[C@@H]1O2
  10.1, 19.8
> COc1ccc(NC(=O)Nc2cccc3c2O[C@H](CN(C)S(=O)(=O)c2ccc(C)cc2)[C@H](C)CN([C@@H](C)CO)C3=O)cc1
  -27.3, -28.7
> C/C=C/c1ccc2c(c1)O[C@H](CN(C)C(=O)CC1CC1)[C@@H](C)CN([C@@H](C)CO)S2(=O)=O
  -8.7, -10.9
> CCCN(C)C[C@H]1Oc2cc(C#Cc3ccccc3OC)ccc2S(=O)(=O)N([C@@H](C)CO)C[C@H]1C
  ?, .
> C[C@H](CO)N1C[C@H](C)[C@@H](CN(C)C(=O)Nc2cccc3ccccc23)Oc2ccc(NC(=O)c3ccncc3)cc2CC1=O
  -1.9, -3.0
> CO[C@H]1CN(C)C(=O)c2cc(NC(=O)C3CCC3)ccc2OC[C@@H](C)N(Cc2nccs2)C[C@@H]1C
  -10.6, -6.9
> C[C@@H]1CN([C@@H](C)CO)S(=O)(=O)c2ccc(-c3cccnc3)cc2O[C@H]1CN(C)C(=O)c1cccc(F)c1
  -1.5, 0.5
> O=S(=O)(N[C@H]1CC[C@H](CCNS(=O)(=O)c2ccccc2Cl)O[C@@H]1CO)c1ccccc1
  ?, .
> COc1ccccc1S(=O)(=O)N[C@@H]1CC[C@@H](CC(=O)N2CCCCC2)O[C@@H]1CO
  2.8, 0.9
> O=C(C[C@H]1C[C@H]2c3cc(NC(=O)NC4CCCC4)ccc3O[C@H]2[C@H](CO)O1)NC1CCCCC1
  11.9, 10.6
> O=C(C[C@@H]1CC[C@@H]2[C@H](COC[C@H](O)CN2Cc2ccc(F)cc2)O1)NCc1ccccc1Cl
  -18.4, -19.9
> C[C@H]1CN([C@@H](C)CO)C(=O)c2cc(NC(=O)CCN3CCOCC3)ccc2O[C@H]1CN(C)Cc1ccc2c(c1)OCO2
  13.0, 10.3
> O=C(C[C@H]1C[C@H]2c3cc(NC(=O)C4CCOCC4)ccc3O[C@H]2[C@H](CO)O1)NCc1cccc(F)c1
  3.8, 3.1
> CC(C)NC(=O)Nc1ccc2c(c1)C(=O)N([C@H](C)CO)C[C@H](C)[C@@H](CN(C)Cc1ccncc1)O2
  10.1, 3.9
> Cc1ccccc1S(=O)(=O)N1[C@@H]2CNC[C@H]1C2c1ccc(-c2cccc(C(=O)N(C)C)c2)cc1 (stereo partly specified)
  9.6&3.4, 4.5&10.4
> COc1ccc2c3c([nH]c2c1)[C@H](CO)N(C(=O)CN(C)C)CC31CCN(Cc2cncnc2)CC1
  4.9, 4.0
> N#C[C@H]1[C@@H](c2ccccc2-c2ccccc2F)[C@@H](CO)N1C(=O)c1cccc(F)c1
  -2.7, -1.1
> COCC(=O)N1[C@H](C(=O)Nc2ccccc2)[C@@H](CO)[C@@H]2Cn3c(ccc(-c4ccccc4)c3=O)[C@@H]21
  18.0, 13.1
> C[C@@H]1CN([C@H](C)CO)C(=O)Cc2cc(NS(=O)(=O)c3ccccc3)ccc2O[C@H]1CN(C)Cc1ccc(C(=O)Nc2ccccc2N)cc1
  2.7, 2.8
> O=C(N[C@@H]1CC[C@@H](CCNC(=O)C2CCCC2)O[C@H]1CO)c1ccncc1
  -3.0, 4.6
> C[C@H]1CCCCO[C@@H](CN(C)C)[C@@H](C)CN([C@@H](C)CO)C(=O)c2cc(NS(=O)(=O)c3ccccc3)ccc2O1
  -3.2, -2.2
> CCOC(=O)[C@@H]1[C@@H]2NC(=S)N(C)[C@@]1(COCc1ccc(OC)cc1)Oc1ccccc12
  -0.4, -9.8
> C[C@@H]1CN([C@@H](C)CO)C(=O)c2cc(C#C[C@@H](C)O)cnc2O[C@@H]1CN(C)C(=O)c1ccc(F)cc1
  29.4, 14.3
> O=C(NCC[C@H]1CC[C@@H](NS(=O)(=O)c2ccc(Oc3ccccc3)cc2)[C@H](CO)O1)C1CC1
  -18.8, 1.2
> C[C@H](O)C#Cc1cnc2c(c1)C(=O)N([C@@H](C)CO)C[C@H](C)[C@@H](CN(C)CC1CCCC1)O2
  12.9, 4.7
> C[C@H]1CN([C@@H](C)CO)C(=O)c2cc(NC(=O)C3CC3)ccc2O[C@H]1CN(C)C(=O)Nc1ccc(F)cc1
  14.0, 6.5

Remaining list, next part.
structure | Vaccinia stage | Vaccinia stage Venus
C[C@H]1CN([C@@H](C)CO)S(=O)(=O)c2ccc(/C=C/c3ccccc3)cc2O[C@@H]1CN(C)Cc1cncnc1 | ? | .
Cc1noc(C)c1S(=O)(=O)Nc1ccc2c(c1)C(=O)N([C@H](C)CO)C[C@@H](C)[C@@H](CN(C)C)OCCCC[C@H](C)O2 | 13.3 | 14.8
OC[C@@H]1[C@@H](c2ccc(C#CC3(O)CCCC3)cc2)[C@H]2CN(Cc3ccncc3)CCCCN12 | 10.2 | 5.3
Cc1cccc(S(=O)(=O)N2C[C@@H](O)COC[C@@H]3O[C@H](CC(=O)Nc4ccc(-c5ccccc5)cc4)CC[C@H]32)c1 | -30.9 | -20.2
COCC(=O)Nc1ccc2c(c1)[C@H]1C[C@@H](CC(=O)NCc3ccccc3F)O[C@H](CO)[C@H]1O2 | -1.7 | 7.1
C[C@H]1CN([C@@H](C)CO)C(=O)Cc2cc(NS(=O)(=O)c3ccc(Cl)cc3)ccc2O[C@@H]1CN(C)S(=O)(=O)c1ccc(F)cc1 | 1.9 | 0.8
Cc1ccc(S(=O)(=O)N[C@@H]2CC[C@H](CC(=O)N3CCc4ccccc4C3)O[C@H]2CO)cc1 | -7.5 | -1.1
C[C@@H]1CN([C@@H](C)CO)C(=O)c2cc(Br)cnc2O[C@H]1CN(C)S(=O)(=O)c1cccs1 | 6.7 | -7.5
C[C@@H]1CN([C@H](C)CO)C(=O)Cc2cc(N(C)C)ccc2O[C@@H]1CN(C)S(C)(=O)=O | 12.4 | 17.3
Cc1ccc(S(=O)(=O)N[C@H]2CC[C@@H](CCn3cc(-c4ccccc4F)nn3)O[C@@H]2CO)cc1 | ? | .
COc1ccc(S(=O)(=O)N(C)C[C@H]2Oc3ccc(NC(=O)Nc4c(C)noc4C)cc3C(=O)N([C@H](C)CO)C[C@H]2C)cc1 | 12.3 | 3.6
Cc1noc(C)c1NC(=O)N(C)C[C@@H]1Oc2ccc(NC(=O)CCCCCC(=O)Nc3ccccc3N)cc2CC(=O)N([C@H](C)CO)C[C@H]1C | 6.1 | 0.1
CO[C@H]1CN(C)C(=O)c2cc(NC(=O)NC(C)C)ccc2OC[C@@H](C)N(C(=O)CN(C)C)C[C@@H]1C | 21.1 | 15.4
COc1cccc(-c2ccc3n(c2=O)C[C@@H]2[C@@H](CO)[C@H](C(=O)NCC4CC4)N(C(C)=O)[C@H]32)c1 | 21.5 | 7.6
O=C(c1ccccc1F)N1CC[C@H]2[C@H](CO)Nc3ccc(-c4ccccc4)cc3[C@H]21 | -19.8 | -10.0
COc1ccccc1S(=O)(=O)N[C@@H]1CC[C@@H](CC(=O)NCc2cc(F)cc(F)c2)O[C@@H]1CO | 7.3 | 5.0
C[C@H]1CN([C@@H](C)CO)C(=O)c2cc(C#CC3CC3)cnc2O[C@@H]1CN(C)C(=O)Nc1ccccc1 | 7.7 | -7.3
O=C(C[C@@H]1C[C@H]2c3cc(NC(=O)C4CCOCC4)ccc3O[C@H]2[C@H](CO)O1)NC1CCCC1 | 9.4 | 13.7
OC[C@@H]1[C@H](c2ccc(C#Cc3ccccc3)cc2)[C@H]2CN(Cc3cncnc3)CCCCN12 | -28.9 | -31.1
C[C@H]1CN([C@@H](C)CO)C(=O)c2cccc(NC(=O)c3cnccn3)c2O[C@H]1CN(C)C(=O)Nc1ccc2c(c1)OCO2 | 12.6 | 10.0
C/C=C/c1ccc2c(c1)O[C@H](CN(C)C(=O)c1cnccn1)[C@H](C)CN([C@@H](C)CO)S2(=O)=O | -5.5 | 4.8
Cc1ccc(S(=O)(=O)N(C)C[C@@H]2Oc3ccc(NC(=O)Nc4c(C)noc4C)cc3CC(=O)N([C@@H](C)CO)C[C@H]2C)cc1 | 7.9 | -5.6
C[C@H]1CN([C@@H](C)CO)C(=O)c2cc(NS(C)(=O)=O)ccc2O[C@@H]1CN(C)CC1CC1 | 7.6 | 13.3
C[C@@H]1CN([C@H](C)CO)C(=O)c2cc(C#CCc3ccccc3)cnc2O[C@@H]1CN(C)Cc1cccnc1 | 18.1 | 12.7
CC(C)NC(=O)N(C)C[C@@H]1Oc2ncc(C#Cc3ccc(F)cc3)cc2C(=O)N([C@H](C)CO)C[C@@H]1C | -6.4&-20.5 | -0.4&-10.9
CN1c2ccc(-c3cccc(F)c3)cc2[C@H]2[C@H](CCN2C(=O)C2CCOCC2)[C@@H]1CO | 1.5 | 2.4
C[C@H](CO)N1C[C@H](C)[C@H](CN(C)Cc2ccc(C(F)(F)F)cc2)Oc2c(NC(=O)Nc3cccc4ccccc34)cccc2C1=O | -7.9 | -14.4
CC(C)NC(=O)N1CC(=O)N2[C@H](CO)[C@@H](c3ccc(C#CCN(C)C)cc3)[C@@H]2C1 | 4.6 | -2.4
C[C@H](CO)N1C[C@H](C)[C@H](CN(C)S(=O)(=O)c2cn(C)cn2)Oc2ncc(C3=CCCC3)cc2C1=O | 3.5 | 7.5
O=C(C[C@@H]1C=C[C@@H](NC(=O)Nc2cccc(F)c2)[C@H](CO)O1)NCC1CC1 | -9.4 | -0.2
COc1ccc2c3c([nH]c2c1)[C@H](CO)N(S(C)(=O)=O)CC31CN(C(=O)c2cccnc2)C1 | 21.1 | 9.9
C[C@H](CO)N1C[C@H](C)[C@@H](CN(C)CC2CC2)Oc2c(NC(=O)Nc3ccc(C(F)(F)F)cc3)cccc2C1=O | -5.8 | -7.1
Cc1ccc(S(=O)(=O)Nc2ccc3c(c2)C(=O)N([C@H](C)CO)C[C@@H](C)[C@H](CN(C)S(=O)(=O)c2ccc(C)cc2)OCCCC[C@H](C)O3)cc1 | ? | .
Cc1noc(C)c1NC(=O)N(C)C[C@@H]1Oc2ncc(/C=C/c3ccccc3)cc2C(=O)N([C@H](C)CO)C[C@@H]1C | -1.7 | 3.6
COc1ccc(NC(=O)N(C)C[C@@H]2OCCCC[C@@H](C)Oc3ccc(N(C)C)cc3C(=O)N([C@@H](C)CO)C[C@@H]2C)cc1 | -13.3 | -7.5
O=C(C[C@@H]1C[C@@H]2c3cc(NC(=O)C4CCOCC4)ccc3O[C@@H]2[C@H](CO)O1)NCC1CC1 | 12.0 | 10.5
CO[C@H]1CN(C)C(=O)c2ccc(NC(=O)C3CCCCC3)cc2OC[C@H](C)N(Cc2nccs2)C[C@@H]1C | -6.7 | -3.6
CO[C@@H]1CN(C)C(=O)c2ccc(NS(C)(=O)=O)cc2OC[C@H](C)N(C(=O)C2CC2)C[C@@H]1C | 4.8 | 2.4
CCN1[C@@H]2Cn3c(ccc(-c4ccccc4F)c3=O)[C@H]1[C@@H](C(=O)N1CCCCC1)[C@@H]2CO | -1.7 | 1.2
C[C@@H]1CCCCO[C@@H](CN(C)Cc2ccc(C(F)(F)F)cc2)[C@@H](C)CN([C@H](C)CO)C(=O)c2cc(NS(=O)(=O)c3cn(C)cn3)ccc2O1 | 9.1 | -4.8
CNC(=O)C[C@H]1CC[C@H]2[C@H](COc3ccc(NC(=O)Nc4ccc(F)c(F)c4)cc3C(=O)N2C)O1 | 1.0 | -2.8
CNC[C@H]1Oc2cc(C#CC3CCCC3)ccc2S(=O)(=O)N([C@H](C)CO)C[C@@H]1C | -30.8 | -30.0
C[C@H](CO)N1C[C@H](C)[C@@H](CN(C)Cc2ccc(-c3ccccc3)cc2)Oc2ccc(NC(=O)NC3CCCCC3)cc2CC1=O | -22.9 | 4.0
C[C@H](CO)N1C[C@H](C)[C@@H](CN(C)C(=O)c2cccnc2)Oc2cc(C#CC3(O)CCCC3)ccc2S1(=O)=O | 3.5 | 1.8
CO[C@@H]1CN(C)C(=O)c2ccc(NS(=O)(=O)c3ccc(C)cc3)cc2OC[C@@H](C)N(Cc2nccs2)C[C@@H]1C | -2.8 | 4.6
Cc1cccc(S(=O)(=O)N2C[C@@H]3[C@H](c4ccccc42)[C@H](CO)N3CC2CCCC2)c1 | -30.9 | -12.5
CCNC(=O)C[C@H]1CC[C@@H]2[C@@H](COc3ccc(NC(=O)c4cc(C)on4)cc3C(=O)N2C)O1 | -5.0 | -5.6
O=C(CN1CCOCC1)NCC[C@H]1CC[C@@H](NC(=O)Nc2ccc(C(F)(F)F)cc2)[C@@H](CO)O1 | -4.4 | 1.4
C[C@H](CO)N1C[C@H](C)[C@@H](CN(C)Cc2ccc(Oc3ccccc3)cc2)Oc2ccc(NC(=O)Cn3cnnn3)cc2C1=O | 8.4 | 6.8

Profiles as entered above:
Results for `CCNC(=O)C[C@H]1CC[C@@H]2[C@@H](COc3ccc(NC(=O)c4cc(C)on4)cc3C(=O)N2C)O1` → Vaccinia stage = -5.0; Vaccinia stage Venus = -5.6
Results for `O=C(CN1CCOCC1)NCC[C@H]1CC[C@@H](NC(=O)Nc2ccc(C(F)(F)F)cc2)[C@@H](CO)O1` → Vaccinia stage = -4.4; Vaccinia stage Venus = 1.4
